# Assay outcomes (PubChem)
# HCMV UL50-53 inh: disrupts HCMV UL50-UL53 complex binding. HTRF UL50-UL53 interaction, normalized percent inhibition. inhibition, % (test concentration not listed). hit rate 0.15% among 190,000;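 active = both replicates at 50% or more, plus weaker picks with an unusually low signal ratio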;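 also: stock transfer was 100 nL into about 20 µL; 0% = negative control wells and 100% = wells with untagged competitor protein; inactives centre near -12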
# GIV Gai3 FP: inhibitors of GIV GBA-motif binding to rat Galpha-i3 | Galpha-i3/FITC-GIV peptide fluorescence polarization, 90 min; stronger effect = lower value; scaled: aluminum fluoride 0%, vehicle 100% | percent of control (FP), % (concentration not given with the values) | P08753 | AID 1224905 | hit rate 0.42% among 210,000;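 active = replicate mean at 85% of control or lower, very high polarization wells dropped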;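 also: wells of about 15 µL received 100 nL stock; the first replicate is given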
# Target sequence (P08753 whole entry, looked up): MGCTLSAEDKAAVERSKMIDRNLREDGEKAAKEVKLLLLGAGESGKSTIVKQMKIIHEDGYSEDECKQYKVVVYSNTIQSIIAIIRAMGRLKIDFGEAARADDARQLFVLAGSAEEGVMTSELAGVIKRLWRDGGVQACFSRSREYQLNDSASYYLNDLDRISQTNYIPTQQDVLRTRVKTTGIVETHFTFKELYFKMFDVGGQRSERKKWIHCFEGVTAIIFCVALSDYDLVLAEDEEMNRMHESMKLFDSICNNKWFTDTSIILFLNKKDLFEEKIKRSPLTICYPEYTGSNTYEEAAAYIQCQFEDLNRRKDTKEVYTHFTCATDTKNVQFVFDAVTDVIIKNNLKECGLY
# Sa growth inh: S. aureus growth inhibition. S. aureus RN4220 growth, OD600, 20 h, 42 °C; stronger effect = lower value. relative growth, % (no concentration beside the values). hit rate 0.53% among 170,000. AID 720641;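 active = growth at 42 °C up to 50% and 20 or more points under that at 30 °C, or under 10% at both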;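 also: 300 nL library stock went into each well; scaled to the means of positive and negative controls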
# Sa growth inh second temp: second read-out of Sa growth inh, no call of its own (marks repeat the call); relative growth, %; measured here: growth at 30 °C;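 optical density after 20 h as mean of two plates; 100% = untreated growth and lower means inhibition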
# * hit, by the source's call; / = not tested or not shown; & = joins results of further samples.
# Sequence of screens: HCMV UL50-53 inh	GIV Gai3 FP	Sa growth inh	Sa growth inh second temp
- COc1ccc(CCN2CC(C(=O)O)CC2=O)cc1 (stereo unspecified)
→ 7	103	117	97
- Cc1nc(SCC(=O)N(C)c2ccccc2)c(C#N)c(C)c1C
→ 14	/	104	90
- O=C1Nc2ccccc2/C1=C/C1CC=CCC1 (stereo unspecified)
→ /	102	61	64
- Cc1cccc(C(=O)Nc2ccc(S(=O)(=O)N(Cc3ccccc3)c3ccccc3)cc2)c1
→ -22	103	119	68
- N#CCN(CC#N)C(=O)c1ccco1
→ -1	/	94	90
- COC(=O)c1sc2cccc(F)c2c1S(=O)(=O)Nc1cc(OC)cc(OC)c1
→ /	103	97	89
- Cc1[nH]n(-c2ccc(Br)cc2)c(=O)c1C1=c2ccccc2=NC1=O
→ -14	107	100	84
- CCC(C)NC(=O)C1CCN(c2ccc(-c3ccccc3)nn2)CC1 (stereo unspecified)
→ -41	103	/	/
- Cc1nc(C(F)(F)F)ccc1NC(=O)C(F)(F)Sc1ccccc1
→ /	107	120	73
- CC1SC2(NC1=O)C1CC3CC(C1)CC2C3 (stereo unspecified)
→ -4	99	108	79
- CC(C)Oc1ccc(C(=O)NCC(c2ccccc2)c2c[nH]c3ccccc23)cc1 (stereo unspecified)
→ -3	109	/	/
- CC(=O)c1ccc(N2CCN(C(=O)Nc3ccc(C)cc3)CC2)cc1
→ 18	111	105	93
- COc1ccc(N2CCN(C(=O)c3cc(C)[nH]n3)CC2)cc1
→ -16	97	90	83
- COC(=O)C(NC(=O)Cc1c(C)nc2c(-c3ccccc3)c(C)nn2c1C)C(C)C (stereo unspecified)
→ /	105	99	84
- Cc1ccc(S(=O)(=O)c2c(C)cc(C)n(CC(=O)NCc3ccc4c(c3)OCO4)c2=O)cc1C
→ -18	103	/	/
- COc1ccc(OC(=O)c2ccc(Cl)cc2)cc1
→ -14	/	84	92
- COc1ccc(/C=C2/C(=O)N=C(N)N2C)cc1
→ -81	110	90	96
- CCOC(=O)CC1=Nn2c(C)nnc2SC1
→ 5	/	92	94
- Cc1nc2ncnn2c(C)c1CC(=O)O
→ -6	/	103	92
- CC(C)(C)SCC(=O)Nc1nn2cnnc2s1
→ -8	/	97	102
- CCCc1c(C)c(C#N)c2nc3ccccc3n2c1NCCCn1ccnc1
→ -48	98	86	84
- CCc1c(C)nc(-n2nc(C)cc2NC(=O)c2cc(C)cc(C)c2)[nH]c1=O
→ -3	101	/	/
- COc1ccc(N2CCN(C(=O)[C@H](C)N3C(=O)c4cc(Cl)c(Cl)cc4C3=O)CC2)cc1
→ -22	/	78	86
- Cn1c(=O)c(=O)[nH]c2cc(-c3noc(-c4ccc(Cl)cc4)n3)ccc21
→ 1	100	/	/
- CCOc1ccc(CCNC(=O)CSc2nc(C)c(Cl)c(C)c2C#N)cc1OCC
→ 2	105	87	88
- COc1ccc(-n2nc(-c3ccc(C)cc3)c3cnc4cc(F)c(F)cc4c32)cc1
→ -5	102	103	88
- O=C(c1nc(-c2ccccc2)n(-c2cccc(Cl)c2)n1)N1CCCC1
→ -15	102	/	/
- Cc1nc2ccccn2c1/C=C1\C(=O)N(C)C(=S)N1C
→ -25	/	102	91
- CN1C(=O)C2CCCCN2c2ccc(C(=O)NCCc3c[nH]c4ccc(Cl)cc34)cc21 (stereo unspecified)
→ -29	108	/	/
- CCOC(=O)c1c(C)oc(NC(=O)Nc2ccc(F)cc2)c1C(=O)OCC
→ 0	/	103	88
- Cc1c(N(C)CS(=O)(=O)O)c(=O)n(-c2ccccc2)n1C
→ -52&-26	/	91	89
- CCn1cc(S(=O)(=O)c2cc(C)ccc2C)c(=O)c2cc(F)c(N3CCOCC3)cc21
→ -30	106	104	87
- Cc1ccc(S(=O)(=O)CC(=O)Nc2nc3c(C)cccc3s2)cc1
→ /	101	101	90
- Cc1c(Cl)cn2c(=O)cc(CN(C)Cc3nc4ccccc4c(=O)[nH]3)nc2c1Cl
→ -50	/	95	83
- CNC(=O)c1ccccc1-c1nc(-c2ccccc2OC)no1
→ 0	99	93	109
- O=C1CC(c2ccc(Cl)cc2)Nc2nc3ccccc3n21 (stereo unspecified)
→ /	102	112	93
- Cc1oc2ncnc(OCC(=O)NCCc3ccccc3)c2c1C
→ -14	95	/	/
- COC(=O)Nc1sc(Cc2ccccc2)cc1C(N)=O
→ -6	111	96	101
- CC(=O)Nc1ccc(NC(=O)CN(C)S(=O)(=O)c2ccc3nc(C)sc3c2)cc1
→ /	101	93	87
- CCOc1cc(-c2nc(-c3ccc(-c4ccc(C)cc4)nc3OC)no2)cc(OCC)c1OCC
→ -29	105	87	86
- CC(C)C1Nc2ccc(C(=O)NCc3ccccc3)cc2NC1=O (stereo unspecified)
→ -9	97	86	90
- CC1CC2=C(NC(=S)NC2c2ccc(Cl)cc2)/C(=C/c2ccc(Cl)cc2)C1 (stereo unspecified)
→ /	103	96	74
- O=C(COC(=O)Cc1ccc(Br)cc1)NC1CC1
→ 11	/	109	96
- Nc1ccccc1-c1nnc(SCC(=O)c2ccc(Cl)cc2)[nH]c1=O
→ -47	/	97	77
- CC12CC3(C)CC(C)(C1)CC(C(=O)NCC(=O)O)(C2)C3
→ -15	102	82	90
- Cc1ccc(N2C(=O)C(C)(C)C(C)(C)C2=O)cc1
→ -15	109	97	101
- N#CC(C#N)=CNCCc1ccncc1
→ -26	104	89	89
- CCOC(=O)CC(=O)Nc1ccsc1C(N)=O
→ -4	98	110	94
- c1ccc2sc(CCCCc3nc4ccccc4s3)nc2c1
→ -2	100	/	/
- O=C(CSc1nncn1-c1ccccc1)c1ccc(S(=O)(=O)N2CCCC2)cc1
→ -15	/	96	98

# Other records follow:
# Sequence of screens: HCMV UL50-53 inh	GIV Gai3 FP	Sa growth inh	Sa growth inh second temp
- Cc1ccc(CS(=O)(=O)c2oc(-c3cccs3)nc2S(=O)(=O)c2ccc(F)cc2)cc1
→ -18	99	69	50
- COc1cc(C(=O)Nc2cc(C)ccc2OCc2cc(=O)n3c(C)csc3n2)cc(OC)c1OC
→ /	98	79	82
- Cc1ccc(C(=O)NCC2COc3ccccc3O2)cc1 (stereo unspecified)
→ -19	105	93	87
- O=C(O)CCNC(=S)Nc1ccc(Cl)cc1
→ -30	101	103	87
- CP(=O)(O)c1nccn1-c1ccc(Cl)nn1
→ /	102	87	86
- CCOC(=O)c1c(-c2ccc(Br)cc2)csc1NC(=O)c1ccc(C(C)(C)C)cc1
→ -36	105	103	96
- CCC1NCCNC1=O (stereo unspecified)
→ -35	103	94	83
- O=C(Cn1ncc2c3ccccc3n(Cc3ccccc3F)c2c1=O)N1CCCCC1
→ 2	101	100	91
- CC(C)C(NC(=O)c1ccc(NS(C)(=O)=O)cc1)C(C)C
→ 0	108	113	98
- COc1ccc(-c2cc(C(F)(F)F)nc(SCCC(=O)Nc3cc(C)ccc3O)n2)cc1
→ 2	101	113	101
- Cc1ccc(OCC(=O)N2CCc3ccccc3C2)c(Br)c1
→ -12	104	93	73
- CC1(C)CC(=O)C2=C(C1)OC(N)=C(C#N)C2c1ccc2c(c1Cl)OCO2 (stereo unspecified)
→ -21	92	101	73
- Cc1ccc(C(=O)Nc2ccccc2)c(C)n1
→ -1	104	95	88
- CC1CC(C)CN(C(=O)CCCn2ncn3c(cc4occc43)c2=O)C1 (stereo unspecified)
→ 10	111	106	97
- CCOc1ccccc1NC(=O)c1cnccn1
→ -24	99	97	85
- CCOC(=O)c1sc2nc(C)nc(Nc3ccc(OC)cc3OC)c2c1C
→ -10	103	/	/
- CCOC(=O)c1cc(S(=O)(=O)NCCC(=O)N2CCOCC2)cn1C
→ -1	103	/	/
- Cc1cc(C)c(S(=O)(=O)N2CCc3cc4cc(C)ccc4nc32)c(C)c1
→ -12	107	/	/
- CCOC(=O)c1oc2ccc(Br)cc2c1COC(=O)C1=COCCO1
→ -19	/	91	88
- CCOC(=O)CSc1nnc(CCN2C(=O)c3cccc4cccc(c34)C2=O)n1-c1ccccc1
→ -46	115	/	/
- COc1ccc(NC(=O)c2cc3c(=O)n(Cc4cccnc4)ccc3nc2C)cc1Cl
→ /	98	102	96
- Cc1ccccc1Cn1c(C)c(CNCCCc2ccccc2)c(C(=O)O)c1C
→ -36	106	105	93
- CC1NC(=O)NC1CCCCC(=O)O (stereo unspecified)
→ /	101	103	81
- CC(Sc1nncn1C)C(=O)N(Cc1ccccc1)Cc1ccccc1 (stereo unspecified)
→ -6	/	100	93
- COC(=O)N/N=C(\C)c1ccccc1Br
→ -6	/	98	97
- Clc1cccc(C2OCC3(CO2)COC(c2cccc(Cl)c2)OC3)c1 (stereo unspecified)
→ /	104	107	96
- CCCNC(=O)c1cc(-c2cccc(OC)c2)on1
→ -5	98	98	77
- CCN(CC)c1nn2c(=O)c(C(=O)NCCc3ccccc3C)cnc2s1
→ /	110	97	100
- Clc1ccc(N2Cc3ccccc3C2)cc1
→ -10	102	103	84
- Cc1ccc(S(=O)(=O)NCc2nnc(N)s2)cc1
→ 4	104	95	92

# 5 records drawn at random from the list so far:
# Sequence of screens: HCMV UL50-53 inh	GIV Gai3 FP	Sa growth inh	Sa growth inh second temp
- COC(=O)N/N=C(\C)c1ccccc1Br
→ -6	/	98	97
- CC1NC(=O)NC1CCCCC(=O)O (stereo unspecified)
→ /	101	103	81
- CCN(CC)c1nn2c(=O)c(C(=O)NCCc3ccccc3C)cnc2s1
→ /	110	97	100
- CC(Sc1nncn1C)C(=O)N(Cc1ccccc1)Cc1ccccc1 (stereo unspecified)
→ -6	/	100	93
- Cc1ccc(S(=O)(=O)NCc2nnc(N)s2)cc1
→ 4	104	95	92

# Additional results
# Sequence of screens: HCMV UL50-53 inh	GIV Gai3 FP	Sa growth inh	Sa growth inh second temp
- CC1CCCCC1NC(=O)c1ccccc1Cl (stereo unspecified)
→ 1	/	95	98
- COc1cc2c(C(=O)NCCC3=CCCCC3)cn(C)c(=O)c2cc1OC
→ -12	105	98	95
- c1ccc(SCCNCc2ccccn2)cc1
→ -18	/	148	85
- N#Cc1sc2nc3ccccc3n2c1/N=C/c1cccs1
→ -46	95	107	84
- CCCSC1=C(C#N)C(c2cccnc2)C(C(=O)OCC)=C(c2ccccc2)N1 (stereo unspecified)
→ -7	100	/	/
- O=C(CSc1nc2ccccc2nc1Cc1ccccc1)N1CCc2ccccc21
→ /	98	83	90
- Fc1ccccc1Cn1c(-c2ccccc2)nc2ccccc21
→ 5	103	84	70
- Cc1cccc(N2CCN(C(=O)CCCC(=O)N3CCN(c4cccc(C)c4C)CC3)CC2)c1C
→ 0	100	94	61
- O=C(COc1ccc(Cl)cc1)N1CCCN(c2ccc(=O)n(-c3ccccc3)n2)CC1
→ -17	99	/	/
- COC(=O)CC1C(=O)NCCN1C(=O)c1ccc(OC)cc1 (stereo unspecified)
→ 6	/	100	98
- Oc1cccc2ccc(Oc3cccc4cccnc34)nc12
→ -6	103	115	108
- COc1ccc(NC(=O)CCN2CCN(CCO)CC2)c(OC)c1
→ 2	108	104	95
- O=C(CN1C(=O)/C(=C/c2ccccc2)SC1=S)Nc1cc([N+](=O)[O-])ccc1O
→ 25	102	/	/
- CCc1ccc[n+](OC(=O)N(CC)CC)c1
→ /	100	0.1*	-1.0*
- Cn1c(=O)oc2cc(S(=O)(=O)N3CCC(C(=O)N4CCN(c5ccccc5F)CC4)CC3)ccc21
→ 2	105	114	89
- O=C(CSc1cccc2cccnc12)OCC(=O)c1ccc(Br)cc1
→ -16	/	94	89
- CCCn1nc(C(=O)OC)c2ccccc2c1=O
→ -21	/	79	84
- Cc1cnc(=O)[nH]c1SCC(=O)Nc1nc2ccccc2s1
→ /	106	129	94
- CCSC1=C(C#N)C(c2ccccc2)CC(=O)N1 (stereo unspecified)
→ -11	98	92	92
- CC(C)C(c1nnnn1CCc1ccccc1)N(Cc1ccco1)Cc1ccccc1Cl (stereo unspecified)
→ -10	105	102	78
- O=C(OCc1ccc(F)cc1F)c1ccc(F)cc1
→ -8	101	110	88
- COC(=O)c1ccc(NC(=O)CCc2c(C)nc3c(c(C)nn3C)c2C)cc1
→ -5	110	98	87
- CCCC1OCC2(CO)C(C)C=C(C)C1C2C (stereo unspecified)
→ 10	104	119	79
- N#Cc1ccsc1NC(=O)CSc1nnc(-c2ccccc2)n1Cc1ccc2c(c1)OCO2
→ -8	/	117	87
- CCCN(CCC)C(=O)c1ccc(CNS(=O)(=O)c2ccc(F)cc2)cc1
→ /	108	117	88
- Cc1ccccc1CNC(=O)c1cnc2sc(N3CCOCC3)nn2c1=O
→ /	105	81	92
- Cc1ccc(NC(=O)CS(=O)(=O)c2ccc3c(c2)n(C)c(=O)n3C)cc1F
→ -22	102	/	/
- Cc1ccc(NCC(=O)NC2CCCCC2C)c(C)c1 (stereo unspecified)
→ -6	/	95	90
- O=C(Oc1ccc2c(=O)c(Oc3ccc4ccccc4c3)coc2c1)c1cncc(Br)c1
→ -7	110	/	/
- O=C(Cc1cccs1)N1CCN=C1SCc1ccccc1
→ -33	103	54	34
- O=C(COC(=O)Cc1ccsc1)NC1CCCCCC1
→ 11	/	101	97
- Cc1ccc(Nc2nc(C)cc(=O)[nH]2)c(C)c1
→ 5	104	/	/
- Cc1ccc(S(=O)(=O)/N=C(/c2ccccc2)N(C)c2ccc(O)cc2)cc1
→ /	99	105	77
- COc1nccc(C(F)(F)F)c1C(=O)Nc1ccc(Cl)cc1Cl
→ 0	108	120	86
- COC(=O)c1ccccc1CSC(=N)N
→ -17	100	/	/
